Screening data as filed in PubChem.
B2AR ag = activates human beta-2 adrenergic receptor causing internalization; response, % (test concentration not listed); AID 504454; 340,000 compounds, 0.43% hits; Am2.2-beta2AR cells, FAP receptor internalization, flow cytometry; reference of the scale not given here; P07550;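 active = response above a set limit, near 3 SD of response in nonfluorescent compounds, cut at about 42% in these data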;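 note: stock transfer was 100 nL into about 11 µL; a reference agonist was the positive control; negative values mostly stem from fluorescent compounds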
Target sequence (P07550 whole entry, looked up): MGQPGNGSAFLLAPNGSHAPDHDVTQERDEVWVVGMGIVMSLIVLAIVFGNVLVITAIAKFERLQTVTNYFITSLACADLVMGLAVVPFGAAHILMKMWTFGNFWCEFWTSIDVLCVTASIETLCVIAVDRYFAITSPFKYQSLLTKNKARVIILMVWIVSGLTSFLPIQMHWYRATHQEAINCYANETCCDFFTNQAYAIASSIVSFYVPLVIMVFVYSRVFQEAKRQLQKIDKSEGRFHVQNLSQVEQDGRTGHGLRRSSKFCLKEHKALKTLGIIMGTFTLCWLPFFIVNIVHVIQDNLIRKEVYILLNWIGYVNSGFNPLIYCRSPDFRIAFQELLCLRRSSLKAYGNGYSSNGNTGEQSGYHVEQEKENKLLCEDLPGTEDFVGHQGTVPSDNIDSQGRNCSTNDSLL
Ecoli rRNA inh = inhibitors of bacterial rRNA selective over humanized ribosomes; E. coli WT GFP vs humanized-ribosome RFP mutants, fluorescence, 24 h; stronger effect = lower value; DMSO median 0, no signal -100; AID 720706; GFP signal change (wild-type ribosome), % (no concentration beside the values); 350,000 compounds, 1.6% hits;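 active = significant combined selectivity score with lowered wild-type GFP, culture density cut under 30%, mutant RFP and density less affected; inactive = any of these conditions unmet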; note: one replicate is shown; some compounds called inactive have numbers as strong as hits
Beta apoptosis = blocks beta cell apoptosis | protection from apoptosis, % (test concentration not listed) | AID 435005 | 300,000 compounds, 0.8% hits | INS-1E cytokine-induced death, ATP luminescence, 48 h; percent of positive-control rescue, neutral wells zero;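 active = all replicates at 75% or more, or half of them and the mean; inconclusive = half reach 75% but not the mean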;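 note: 0% = cytokine-treated negative control wells and 100% = positive control rescue; higher means more ATP so stronger rescue from cytokine killing; wells of about 40 µL received 100 nL stock; the first replicate is given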
A1 inh = inhibitors of the anti-apoptotic protein A1, read as caspase activation. caspase activation, % (no concentration beside the values). AID 2462. 330,000 compounds, 0.066% hits. MEF A1-2A-BIM cells, Caspase-Glo 3/7 luminescence, 3 h; percent of clofoctol response, vehicle zero;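 active = over half of replicate activation scores above 10%, or exactly half above 10 with the replicate mean above 10; inconclusive = replicate mean below 10 yet half the replicates above 10; inactive = over half of replicates below 10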;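 note: wells of about 30 µL received 50 nL stock; many hits fall short of the cut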
LANA-H2B inh = blocks KSHV LANA binding to histone H2A/H2B; Q9QR71; cell-free LANA-H2A/H2B peptide, fluorescence polarization; inhibition, % (concentration not given with the values); 320,000 compounds, 0.6% hits; in the data active = inhibition mostly above about 10%, no sharp cut-off; inactive = mostly below about 6.7%;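 note: stock transfer was 7.5 nL into about 10 µL; 0% = median of vehicle wells and 100% = median of positive control wells; one replicate is shown; the record names a cut of 25% in any replicate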
ALR inh = inhibitors of human sulfhydryl oxidase ALR; P55789; purified ALR, DTT oxidation, H2O2 HRP-luminol luminescence; inhibition, % (concentration not given with the values); 290,000 compounds, 3.8% hits; AID 485317;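 active = mean and each replicate at 75% or more; inconclusive = only one of the two met; inactive = neither met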;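 note: stock transfer was 7.5 nL into about 7.5 µL; 0% = neutral wells and 100% = wells with inactivated enzyme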
Target sequence (P55789 whole entry, looked up): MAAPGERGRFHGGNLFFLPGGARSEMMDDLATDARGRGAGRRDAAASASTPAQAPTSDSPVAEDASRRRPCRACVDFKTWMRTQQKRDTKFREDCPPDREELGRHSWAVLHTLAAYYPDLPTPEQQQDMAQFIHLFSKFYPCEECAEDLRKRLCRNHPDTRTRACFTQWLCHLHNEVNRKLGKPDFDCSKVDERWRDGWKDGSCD
T cruzi repl = T. cruzi replication inhibition; 300,000 compounds, 1.4% hits; T. cruzi beta-gal in NIH3T3, luminescence, 90 h; inhibition, % (concentration not given with the values);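 active = mean inhibition across valid replicates above about 55%, limit read from the data; inconclusive = mean below that limit but half or more replicates reach it; inactive = mean below it, under half of replicates reach it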;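 note: signal also drops with host cell toxicity which is not excluded here; 0% = plate median of DMSO wells and 100% = zero luminescence signal; higher percent means less beta-gal luminescence so fewer parasites; stock transfer was 50 nL into about 50 µL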
Calb FLC = C. albicans growth modulation with fluconazole. C. albicans CaCi-2 (fluconazole-resistant clinical isolate) + fluconazole, Alamar Blue growth, 48 h. growth inhibition, % (test concentration not listed). 300,000 compounds, 0.57% hits. AID 1979;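 active = most replicates above 75%; inconclusive = exactly half above 75%; inactive = most below 75%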;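 note: all wells also contain fluconazole at 8 µg/ml as a sub-toxic cotreatment; 0% = median of DMSO wells and 100% = median of geldanamycin control wells; wells of about 8 µL received 7.5 nL stock; the first replicate is given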
Ecoli rRNA inh OD600 = also measured in Ecoli rRNA inh; calls as there; OD600 change, %; measured here: OD600 growth;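 optical density of the mix in the first replicate; 0 = DMSO median and -100 = no signal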
Ecoli rRNA inh RFP = also measured in Ecoli rRNA inh; calls as there; RFP signal change, %; measured here: RFP humanized mutant strains;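 first replicate; 0 = DMSO median and -100 = no signal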
Starred values were filed as active, the others as inactive; u = inconclusive; x = no result given. These rows are one share of the data; count on the stated rates, not on these rows.

Results follow in this order: B2AR ag, Ecoli rRNA inh, Ecoli rRNA inh OD600, Ecoli rRNA inh RFP, Beta apoptosis, A1 inh, LANA-H2B inh, ALR inh, T cruzi repl, Calb FLC
> COc1ccc(N(CC(=O)Nc2cc(C)ccc2C)S(=O)(=O)c2c(C)noc2C)cc1
  -2, -18, -20, -3.2, -14, 0.6, 4.4, -10, 10, 8
> NS(=O)(=O)c1ccc(CCNCc2cc(Br)ccc2OCc2ccccc2)cc1
  7, x, x, x, 35, 0.3, 2.7, -15, -22, 0
> CCc1cc2c(-c3ccccc3)cc(=O)oc2c(CN2CCOCC2)c1O
  -16, x, x, x, 16, 0.6, -5.0, 3, -4, 17
> CCOc1cc(CNCC(C)C)c(Cl)cc1OCC(=O)Nc1ccccc1
  11, 11, 1, -0.7, 2, 0.3, -6.6, 19, 26, -39
> COc1cc(/C=N/NC(=O)C2CCN(CC(O)COCc3ccccc3)CC2)cc(OC)c1OC (stereo not drawn)
  1, 2, 3, -0.9, 2, 0.2, -1.2, -9, -6, 4
> Cc1ccc(-n2c(SCC(=O)N/N=C/c3ccccc3OCC(=O)O)nc3ccccc3c2=O)cc1
  -7, -1, 1, -6.9, -8, 0.9, -1.7, 7, -6, 4
> Cc1ccc(NC(=O)c2cccnc2)cc1S(=O)(=O)N(C)C
  0, 21, 16, 3.4, -3, 0.4, -4.3, 2, -14, -14
> Clc1ccc(CCNc2nc3ccccc3n3nnnc23)cc1
  0, 8, 5, -0.4, -1, 0.8, 1.0, x, 9, 1
> COc1ccc(-n2nnnc2SCC(=O)N2CCCC2=O)cc1
  -3, 1, 9, -2.0, -2, -0.2, -1.0, 5, x, x
> COc1ccc(OC)c(N(CC(=O)NCC2CCCO2)S(=O)(=O)c2ccccc2)c1 (stereo not drawn)
  5, 2, -5, -3.3, 0, -1.4, 0.8, 1, 0, 7
> Oc1ccccc1Cc1c(O)ccc2ccccc12
  1, -36, -34, 1.1, -6, 0.7, 0.5, 91*, -13, 11
> Cc1ccccc1CC(=O)Nc1ccon1
  -1, 1, 2, -2.3, 2, 0.9, -3.0, -8, 0, -3
> CCOc1ccc(C(=O)Nc2ccc(S(=O)(=O)N3CCN(C)CC3)cc2)cc1
  6, 2, 14, 10.0, -3, 1.0, 15*, -18, -1, 3
> Cc1ccc2ncnc(Oc3ncccc3[N+](=O)[O-])c2c1
  -13, 11, 1, 4.4, -2, -0.7, -2.2, -13, -19, 0
> Cc1nc(CCNC(=O)C2CCC(=O)N(Cc3cccc(F)c3)C2)sc1C (stereo not drawn)
  -12, 0, -3, 0.3, 1, 0.7, 5.7, -8, -11, -1
> Cc1cc(C(=O)N2CCCC(Nc3ccc(C(C)C)cc3)C2)nn1C (stereo not drawn)
  -9, -8, -17, 0.7, -3, -0.9, 2.3, 99*, 15, -9
> C(=N\n1cnnc1)/c1ccc(OCc2ccccc2)cc1
  -1, x, x, x, -1, -5.7, -5.2, -3, x, 27
> Cc1oc2ccc(NS(=O)(=O)c3cccc4cccnc34)cc2c1C(=O)OC(C)C
  8, x, x, x, 9, 0.2, -4.5, x, 4, 1
> CCCCCCCCn1c(N2CCN(c3cccc(Cl)c3)CC2)nc2c1c(=O)[nH]c(=O)n2C
  -4, x, x, x, 12, 0.3, -1.5, -21, 55*, 4
> NC(=O)C1CCN(C(=O)CCSCc2ccc(Cl)c(Cl)c2)CC1
  0, -6, -4, -2.5, 3, 1.4, -3.2, -8, -9, 10

Printed as active in ALR inh, among the entries above:
canonical_smiles,B2AR ag,Ecoli rRNA inh,Ecoli rRNA inh OD600,Ecoli rRNA inh RFP,LANA-H2B inh,ALR inh
Oc1ccccc1Cc1c(O)ccc2ccccc12,1,-36,-34,1.1,0.5,91*
Cc1cc(C(=O)N2CCCC(Nc3ccc(C(C)C)cc3)C2)nn1C (stereo not drawn),-9,-8,-17,0.7,2.3,99*

The list continues:
Results follow in this order: B2AR ag, Ecoli rRNA inh, Ecoli rRNA inh OD600, Ecoli rRNA inh RFP, Beta apoptosis, A1 inh, LANA-H2B inh, ALR inh, T cruzi repl, Calb FLC
> Cc1ccc(N2CC(C(=O)N3CCC(C(=O)Nc4cccc(Br)c4)CC3)CC2=O)cc1 (stereo not drawn)
  -8, -4, -3, 4.4, -3, 1.9, -1.0, -6, 5, 0
> COc1ccc(OC(=O)CCc2c[nH]c3ccccc23)cc1
  -7, 10, -1, 1.7, -4, -0.6, 4.7, 8, 2, -5
> O=S(=O)(c1ccccc1Cl)N1CCC(O)(c2cccnc2)CC1
  -2, -12, -16, -1.7, -6, -0.8, -0.2, -5, -7, -9
> O=C1c2ccccc2-c2nnc(-c3ccc(F)cc3)cc21
  -5, 28, 18, 3.7, 2, -9.1, -0.2, -8, 5, -41
> NC(=O)CN1CCN(c2nc(-c3ccc(F)cc3)cs2)CC1
  12, x, x, x, -2, -0.4, -2.6, 31, 6, -4
> CCN(CC)C(=O)CNC(=S)N(CCCN1CCOCC1)Cc1cccs1
  -7, x, x, x, -8, 1.0, x, x, -22, -34
> CCOC(=O)CNC(=O)CNC(=O)c1nn(-c2ccc(OC)c(Cl)c2)c(=O)c2ccccc12
  -4, 7, 14, -1.8, -4, 0.0, 10, -4, -32, -3
> COc1ccc(CC(=O)Nc2cccc(-c3ccc4nncn4n3)c2)cc1OC
  -4, -10, -4, -2.5, 6, -0.4, -3.1, -10, 3, -6
> COc1ccc(CCN=C(NS(=O)(=O)c2ccc(Cl)cc2)c2ccccc2)cc1
  x, -29, -58, -11, 3, -0.3, 0.9, 1, -1, 21
> O=C(CC(=O)N/N=C/c1ccc(F)cc1)N/N=C/c1ccc(F)cc1
  1, 16, 7, 0.2, -4, 0.2, 17, -3, -1, -2
> O=C(Nc1cccc(Cl)c1)Nn1cnnc1
  -4, 8, 13, 0.7, 0, 0.6, 2.6, 8, -16, x
> CCN(CC(=O)Nc1ccc(NC(C)=O)cc1)CC(=O)Nc1ccc(Cl)c(Cl)c1
  4, -6, -12, 22, -5, -0.4, 2.3, x, -9, -4
> COc1ccccc1C1C(C#N)=C(N)Oc2cc(C)n(Cc3ccccn3)c(=O)c21 (stereo not drawn)
  5, x, x, x, -5, -0.1, 0.7, -18, 3, u
> N#CC1=C(N)C(C#N)(C#N)C(c2cccnc2)C2CN(C(=O)OCc3ccccc3)CC=C12 (stereo not drawn)
  15, 6, 2, 3.7, 2, 0.9, 3.3, 9, 1, -4
> CCCCCCN1CC(C(=O)OCC)C(=O)C1=O (stereo not drawn)
  7, x, x, x, -6, 0.4, 0.7, 12, -6, -11
> CCCCSc1nnc(CSc2nc3nc(C)cc(C)n3n2)o1
  -17, -1, -7, -2.5, -3, 0.3, 7.4, -8, 28, -1
> COc1ccc([C@H]2CC(=O)C=C(c3ccc(-c4ccccc4)c(F)c3)C2)cc1OC
  -1, 13, 7, -7.4, -2, 0.3, -0.3, 1, x, x
> Cc1ccc(CNC(=O)CSc2n[nH]c(N)n2)cc1
  -2, x, x, x, -7, -1.8, -3.2, -3, -16, 0
> Cc1nc(C)c(C(=O)O)s1
  9, 7, 1, -8.6, -4, -0.2, 4.6, x, 3, -5
> CC1CC(C)(C)NC(=S)N1CCC(=O)N1CCc2ccccc21 (stereo not drawn)
  -3, 7, 8, 2.2, -2, -0.5, 9.0, 1, 3, 6
> O=C(O)Cc1c(O)ccc2ccccc12
  -1, x, x, x, x, -2.9, -4.1, -6, -13, 36
> O=C(NC1CCCCCC1)c1ccc(CS(=O)(=O)Cc2ccc(F)cc2)o1
  -6, 3, -4, 5.4, 2, -0.9, 1.7, -1, -3, -2
> CCOC(=O)N1CCN(C(=O)c2cc3cc(OC)c(OC)cc3[nH]2)CC1
  -14, 3, 5, -13, -6, 0.9, 0.9, -22, -5, 14
> Cc1nc2c(ccc3nc(NC(=O)C(c4ccccc4)c4ccccc4)sc32)s1
  10, 6, 6, -2.2, 19, 0.4, 3.7, -8, 42, -6
> COc1ccc(C(=O)Nc2ccccc2C)cc1S(=O)(=O)N1CCOCC1
  4, 6, 11, -2.2, -3, -0.4, 0.9, -2, -9, -12

No new results follow: an excerpt of the list.
Results follow in this order: B2AR ag, Ecoli rRNA inh, Ecoli rRNA inh OD600, Ecoli rRNA inh RFP, Beta apoptosis, A1 inh, LANA-H2B inh, ALR inh, T cruzi repl, Calb FLC
> COc1ccc(N(CC(=O)Nc2cc(C)ccc2C)S(=O)(=O)c2c(C)noc2C)cc1
  -2, -18, -20, -3.2, -14, 0.6, 4.4, -10, 10, 8
> NS(=O)(=O)c1ccc(CCNCc2cc(Br)ccc2OCc2ccccc2)cc1
  7, x, x, x, 35, 0.3, 2.7, -15, -22, 0
> CCc1cc2c(-c3ccccc3)cc(=O)oc2c(CN2CCOCC2)c1O
  -16, x, x, x, 16, 0.6, -5.0, 3, -4, 17

Reformatted as comma-separated lines: entries from further up.
compound,B2AR ag,Ecoli rRNA inh,Ecoli rRNA inh OD600,Ecoli rRNA inh RFP,Beta apoptosis,A1 inh,LANA-H2B inh,ALR inh,T cruzi repl,Calb FLC
CCOC(=O)N1CCN(C(=O)c2cc3cc(OC)c(OC)cc3[nH]2)CC1,-14,3,5,-13,-6,0.9,0.9,-22,-5,14
Cc1nc2c(ccc3nc(NC(=O)C(c4ccccc4)c4ccccc4)sc32)s1,10,6,6,-2.2,19,0.4,3.7,-8,42,-6
